2A Renilla: FMDV 2A StopGo reporter, Renilla signal | Potency, µM (top dose mostly 57.5 µM), without a hit: top-dose signal change, negative = less light | HEK cells with a luciferase reporter of 2A StopGo recoding | 0.32% of 120,000 active; active means well fitted falling curve with a large enough effect; inconclusive means small, poorly fitted or top-dose-only effect; inactive means no such curve, though single readings can be large or run the other way; also: nearly all actives have a fitted effect of over 55% in size; overnight with compound
2A firefly: lowers the firefly signal of an FMDV 2A StopGo reporter | Potency, µM (highest dose often 57.5 µM), for the others: at the highest dose signal change, negative = less light | HEK cells with a luciferase reporter of 2A StopGo recoding | 0.23% of 120,000 active; active = well fitted falling curve with a large enough effect; inconclusive = small, poorly fitted or top-dose-only effect; inactive = no such curve, though single readings can be large or run the other way; also: nearly all actives have a fitted effect of over 60% in size; overnight with compound
Active calls of the source: *; ? = inconclusive; & = joins results of further samples; [ ] = dose if it differs, or a comment. % is scaled to controls: 0 for no effect and ±100 for the full control effect; potency is read from the fitted curve at half-maximal effect.

SMILES	2A Renilla	2A firefly
COCCNC(=O)COc1ccc2c(C)c(Cc3ccccc3)c(=O)oc2c1C	27%	27%
CC(=O)Nc1ccc(S(=O)(=O)NC2=NCN(CCO)CN2)cc1	5%	-3%
Cc1sc(NC(=O)c2cc3ccccc3s2)c(C#N)c1C	-7%	126%[activator]
CC(Sc1ccccc1Cl)C(=O)NC1(C#N)CCSC1 (stereo not drawn)	11%	-10%
CC(C)CC(=O)Nc1nnc(S(=O)(=O)N2c3ccccc3CC2C)s1 (stereo not drawn)	-5%	-7%
COc1ccccc1CNC(=O)Cn1ccc2cccc(OC)c21	6%	1%
COc1ccc(C(=O)NCC2COc3ccccc3O2)cc1OC (stereo not drawn)	34%[activator]	69%[activator]
COCCN(Cc1ccccc1)C(=O)COc1ccc2ccc(=O)oc2c1	8%	8%
COc1ccc(CCNCc2ccc(Br)cc2)cc1	13µM*	0%
CC(=O)N1c2ccccc2C(=O)C1N1CCN(c2cccc(C(F)(F)F)c2)CC1 (stereo not drawn)	-17%	-22%
O=S1(=O)C[C@H](N2CCN(c3ccccc3F)CC2)[C@@H](S(=O)(=O)c2ccccc2)C1	?	1%
CCC1CCC(NC(=O)/C=C/c2ccccc2F)CC1 (stereo not drawn)	18%	64%[activator]
COc1ccc(C)cc1-n1nnc(-c2nc(-c3ccccc3Cl)no2)c1N	20%	19%
Cc1oc(-c2nc(C#N)c(N3CCOCC3)o2)cc1S(=O)(=O)N(C)C	-13%	-2%
COc1ccc(C(=O)OC2=C(C(=O)c3ccccc3)N(C)S(=O)(=O)c3ccccc32)cc1OC	-16%	23%
CCNC(=O)NC(=O)COC(=O)c1sccc1C	-4%	18%
COc1ccc(C2c3c(-c4ccccc4O)n[nH]c3C(=O)N2CCO)cc1OC (stereo not drawn)	-4%	-1%
CC(=O)c1cc2c(cc1N/C(=N/S(=O)(=O)c1ccc(Cl)cc1)c1ccc(F)cc1)OCO2	7%	-8%
CCC(C(=O)N1CCN(c2ccc(F)cc2)CC1)n1cnc2ccccc2c1=O (stereo not drawn)	-15%	-29%
COc1cc2[nH]c(=O)n(CCCCCC(=O)NCCc3ccccc3)c(=O)c2cc1OC	-16%	-26%
COc1ccc(-c2nnc(SCCS(=O)(=O)c3ccc(Cl)cc3)o2)cc1OC	-9%	-9%
COc1ccc(NC(=O)c2nc(SCc3ccccc3F)ncc2Cl)cc1	-10%	30%
O=C1/C(=C/c2ccc([N+](=O)[O-])cc2)CCOc2ccc(F)cc21	25%	225%[activator]
COC(=O)CN(Cc1cccs1)C1CC1	2%	-2%
CCCCC(CC)CN=C(N)NC(N)=NCCCCCCN=C(N)NC(N)=NCC(CC)CCCC (stereo not drawn)	28µM*	?
CC(=O)c1c(C)oc2ccc(NS(=O)(=O)c3ccc4ccccc4c3)cc12	90%[activator]	?
CC(C)c1ccc(/C=N/NC(=O)C(c2ccccc2)c2ccccc2)cc1	-7%	-15%
CCOC(=O)N1CCN(C(=O)c2cc3ccccc3n2C)CC1	-5%	-2%
CCOC(=O)/C(C#N)=C\c1ccc(N)cc1	17%	160%[activator]
O=S(=O)(NCc1ccccc1F)c1ccc2c(c1)OCCO2	58%[activator]	32%[activator]
O=C(O)CCc1ccc(S(=O)(=O)Nc2ccc(-c3ccccc3)cc2)cc1	1%	2%
COc1ccc(-c2cc3ccc(OCc4nn[nH]n4)cc3oc2=O)cc1	-18%	0%
C=CCNC(=O)c1cccc2c(=O)c(C)c(-c3ccccc3)oc12	20%	21%
CC1=C/C(=N\Nc2nc3ccccc3[nH]2)CC(C)(C)C1	?	?
Cc1ccccc1C(=O)Nc1cc(C)c(O)c(-c2nc3ccccc3o2)c1	-5%	0%
CN(C)C(=O)CNC(=O)c1cc2occc2n1Cc1ccc(Cl)cc1	2%	152%[activator]
Clc1ccccc1CNc1ncnc2c1c(-c1ccccc1)cn2-c1ccccc1	-9%	-17%
O=C(CSc1nccn1-c1cccc(Cl)c1)Nc1cccc(C(F)(F)F)c1	3%	-8%
CC1OC(OC2CCC3(C=O)[C@H]4CCC5(C)C(C6=CC(=O)OC6)CCC5(O)[C@@H]4CCC3(O)C2)C(O)C(O)C1O (stereo partly drawn)	-75%	-79%
CCCC(=O)NCC(=O)N(CCN(C)C)Cc1ccc(Cl)cc1	-6%	80%[activator]
CCc1ccc(NC(=O)c2cc(=O)c3ccc(C)c(C)c3o2)cc1	40%&-8%[activator]	26%&5%
CCOc1ccccc1C(=O)NC12CC3CC(CC(C3)C1)C2	37%	0%
COC(=O)[C@H](C(C)C)N1CCc2nnn(CC3CCCCC3)c2-c2ccccc2S1(=O)=O	235%[activator]	-11%
O=C(CCn1nc(-c2ccc(Cl)cc2)c2ccccc2c1=O)N1CCCC1	-20%	-5%
COc1ccc(CNC(=O)c2cnc3sc(N4CCC(C)CC4)nn3c2=O)c(OC)c1	0%	-1%
Cc1ccc(C)c(NC(=O)C(C)SCCO)c1 (stereo not drawn)	-5%	1%
CCC(C(=O)Nc1ccccc1C(=O)OC)n1nc(C)c2c(C)n(-c3ccc(C)cc3)nc2c1=O (stereo not drawn)	-7%	?
O=C(CCCc1c[nH]c2ccccc12)Nc1ccc(Br)cc1	-5%	29%
Cc1ccc(S(=O)Cc2nc(-c3ccc(C(=O)NCCN4CCCCC4)cc3)oc2C)cc1 (stereo not drawn)	-5%	-16%
CC(C)n1c(SCC(=O)Nc2ccc(F)cc2)nc2c(oc3ccccc32)c1=O	-7%	?
CCOC(=O)c1sc(NC(=O)c2nc3nc(C)cc(C(F)F)n3n2)c(C(=O)OC(C)C)c1C	-4%	-4%
CCC(CC)NC(=O)c1cccc(OC)c1	-4%	-5%
Cc1cc2nc(-c3ccc(NC(=O)c4ccccc4F)cc3)oc2cc1C	-5%	100%[activator]
COc1ccc(-n2c(-c3ccc(F)cc3)cn3c4c(=O)[nH]c(=O)n(C)c4nc23)c(OC)c1	2%	27%
CN(C)C(=O)c1ccc2oc(CN3CCN(C(=O)Nc4ccccc4Cl)CC3)nc2c1	-2%	17%
Cc1ccc(NC(=S)NCCCO)c(C)c1	11%	6%
CCCOc1ccc(NC(=O)COc2ccc(C(C)(C)C)cc2)c2cccnc12	-7%	13%
Nc1cc(=O)nc(SCC(=O)Nc2ccc(F)cc2)n1-c1ccccc1Cl	-2%	18%
CC(C)CCCC(C)CC1C(C#N)=C(N)SC(N)=C1C#N (stereo not drawn)	?	?
CC(=O)Nc1ccccc1-c1nc2ccccc2n(C(C)C(=O)c2ccc(C)c(C)c2)c1=O (stereo not drawn)	15%	0%

Among those listed so far, 2 contain bromine.
SMILES	2A Renilla	2A firefly
COc1ccc(CCNCc2ccc(Br)cc2)cc1	13µM*	0%
O=C(CCCc1c[nH]c2ccccc12)Nc1ccc(Br)cc1	-5%	29%

Later entries
SMILES	2A Renilla	2A firefly
Cc1ccccc1Cn1c(=O)n(CCCCC(=O)NCc2ccccc2Cl)c(=O)c2ccccc21	-16%	-16%
O=C(NC1CCCCCCC1)C1CCCN(c2ncnc3nc[nH]c23)C1 (stereo not drawn)	3%	8%
O=C(CS(=O)(=O)c1cccc2nsnc12)N1CCN(c2ccccc2F)CC1	-3%	0%
Cc1ccc(CCCC(=O)NCc2ccc(CN3CCCC3)cc2)cc1	4%	4%
O=C(COc1ccccc1Cl)c1ccccc1	30%	209%[activator]
Cc1ccc(CNC(=O)CCCCCn2c(=O)c3sccc3n(CC(=O)N(C)c3ccccc3)c2=O)cc1	-12%	-9%
Cc1ccccc1/C=C/C(=O)c1cc2ccccc2o1	102%[activator]	0%
COC(=O)CNCC(=O)OC	1%	-12%
COc1cc(C(=O)NC2CCOC2=O)cc(OC)c1OC (stereo not drawn)	10%	12%
O=S(=O)(NCC(c1cccs1)S(=O)(=O)c1ccccc1)c1ccc(F)c(C(F)(F)F)c1 (stereo not drawn)	359%[activator]	-12%
CCOC(=O)c1ccc(NC(=O)c2ccc3c(c2)CCN3S(=O)(=O)c2ccc(Cl)cc2)cc1	?	-14%
O=C(CSc1nc2nc[nH]c2c(=O)[nH]1)Nc1ccccc1F	-5%	-3%

Profiles, looked up by structure:
`COc1ccc(-c2nnc(SCCS(=O)(=O)c3ccc(Cl)cc3)o2)cc1OC` as listed: 2A Renilla = -9%; 2A firefly = -9%
`O=C(COc1ccccc1Cl)c1ccccc1` as listed: 2A Renilla = 30%; 2A firefly = 209%[activator]
`O=S(=O)(NCc1ccccc1F)c1ccc2c(c1)OCCO2` as listed: 2A Renilla = 58%[activator]; 2A firefly = 32%[activator]

(continued)
SMILES	2A Renilla	2A firefly
Cc1ccc(NC(=O)CSc2nc3c(c(=O)[nH]2)CN(Cc2ccc4c(c2)OCO4)CC3)cc1C	-10%&-14%	14%&0%
CCc1nc(SCC(=O)Nc2cccc(OC)c2)c2c3c(sc2n1)COC(C)(C)C3	2%	4%
Cc1nc(NC(=O)CSc2nnc(-c3ccccc3F)n2C)sc1C	10%	0%
CN(C)c1ccc(C(CNS(=O)(=O)c2ccc(Cl)cc2)N2CCOCC2)cc1 (stereo not drawn)	14%	17%
CCn1c(SCC(=O)c2ccc(C#N)cc2)nnc1-c1ccc(C)cc1	2%	-6%
COc1cccc(C(=O)n2nc(-c3ccco3)nc2NCc2ccc(C(C)C)cc2)c1	9%	163%[activator]
CN(C)S(=O)(=O)c1cccc(NC(=O)c2ccccc2Oc2ccccc2)c1	-6%	?
O=C(CSc1nc(=O)n(Cc2ccco2)c2c1CCC2)Nc1cccc(F)c1	135%[activator]	3%
COCCNC(=O)CCc1c(C)nc2c(c(C)nn2-c2ccc(C)cc2)c1C	?	-10%
CCC1CCCCN1CCCNC(=O)c1sc2nc(C)cc(C)c2c1-n1cccc1 (stereo not drawn)	-4%	-1%
CCOc1ccc(/C=N/OC(=O)c2ccccc2I)cc1	-3%	96%[activator]
COc1ccc(NC(=O)N2CCN(c3nc4ccccc4n3Cc3ccccc3)CC2)c(OC)c1	7%	8%
N#C/C(=C\c1cn(CC(=O)NCc2ccco2)c2ccccc12)C(=O)NC1CC1	22%	29%
CCS(=O)(=O)N1N=C(c2ccc(C)cc2)CC1c1cc2ccc(OC)cc2nc1Cl (stereo not drawn)	75%[activator]	-3%
COc1ccc(NC(=O)NC2CCN(c3nc(C)cc(C)n3)CC2)cc1	-4%	9%
Cc1ccc(-c2cc(C(=O)Nc3cccc(C#N)c3)c3ccccc3n2)o1	-8%	18%
CN(C)C(=O)C(Sc1nncn1-c1ccccc1F)c1ccccc1 (stereo not drawn)	8%	9%
COc1cccc(-c2cc(C(=O)NC3CC3)c3ccccc3n2)c1	30%	31%[activator]
CCc1ccc(CNC(=O)c2ccccc2SC)s1	21%	31%[activator]
CCCCn1cnc2c1c(=O)n(CC(=O)Nc1ccc(F)c(F)c1)c(=O)n2CCCC	5%	-8%
Cc1ccccc1C(=O)Nc1c(C)nc2ccccn2c1=O	6%	41%[activator]
Cc1ccc(Nc2c(-c3ccc(C)cc3)nc3c(C)cccn23)cc1	-9%	-4%
COC(=O)c1cnn(-c2ccc(C(=O)Nc3ccc(Br)cc3F)cc2)c1N	3%	0%
CONC(=O)COc1ccc(C(C)(C)C)cc1	12%	0%
COC(=O)c1ccccc1NC(=O)Cn1c(=O)n(-c2cccc(OC)c2)c(=O)c2c(C)c(C(=O)N(C)C)sc21	2%	-16%
C/C(=N/NC(=O)c1ccncc1)C(=O)O	-1%	-8%[11.5 µM]
O=C(COc1ncnc2ccc(Br)cc12)Nc1cc(F)ccc1F	1%	6%
COc1cc(OC)cc(C(=O)Nc2ccc(Cl)cc2C(=O)c2ccccc2Cl)c1	-6%	-15%
COC(=O)COc1ccc2c(c1)oc(=O)c1ccccc12	6%	-5%
Cc1oc(-c2ccccc2)nc1C(=O)Nc1ccccc1F	-8%	21%
O=C(c1nc(-c2cccc3[nH]ccc23)no1)N1CCCC1	46%[activator]	246%[activator]
COc1cc(C#N)ccc1OCc1cccc(C#N)c1	-15%	83%[activator]
Cc1nnc(SCC(=O)Nc2nncs2)n1C(C)C	-8%	5%
CCOc1ccc(C2c3cc(OCC)c(OCC)cc3CC(=O)N2c2ccc(C(=O)O)cc2)cc1OCC (stereo not drawn)	-10%	0%
O=C(Nc1cccc2[nH]ccc12)C(=O)N1CCCCC1	18%	58%[activator]
CCCC1=Nc2cc(C(=O)NC3CCC(C)CC3)ccc2Sc2ccccc21 (stereo not drawn)	0%	16%
N#Cc1ccc(Cl)cc1N=C/C(Br)=C/c1ccccc1	?	?
N#C/C(=C\c1cccc(Br)c1)c1nc2ccccc2o1	41%[activator]	28%
O=C(NCc1ccc(-n2cccn2)nc1)c1cccc(NC(=O)c2ccco2)c1	0%	36%[activator]
Cc1ccc2cc(C(=O)N3CCC(N4CCCCC4)CC3)[nH]c2c1	-17%	-19%
CCCCN1CC(c2nc3ccccc3n2CCCCOc2ccc(C)cc2C)CC1=O (stereo not drawn)	?	?
Cc1ccc(C)c(Cn2c(=O)n(CCCCC(=O)NCc3ccccc3Cl)c(=O)c3ccccc32)c1	0%	-14%
Cc1c(Cl)cccc1NC(=O)Cn1c(CCC(=O)O)ccc1-c1cccs1	412%[activator]	-13%
O=C(Nc1ccccc1Br)c1cc(CN2CCCC2)on1	?	76%[activator]
COCCCN1C(=O)c2[nH]nc(-c3ccccc3O)c2C1c1ccc(OCc2ccccc2)cc1 (stereo not drawn)	3%	?
COc1ccc(OC)c(C2CCCN2CC(=O)N2CCN(c3ccccc3)CC2)c1 (stereo not drawn)	-1%	-8%
CC(Nc1ccc(-c2ccccc2)cc1)C(=O)Nc1ccc(Cl)cn1 (stereo not drawn)	4%	0%

Bioassay records (PubChem BioAssay)

Rows were taken by chance; overall some 0.55% were active at least once.
